Bioassay records deposited in PubChem BioAssay by National Center for Advancing Translational Sciences (NCATS).
TRPML1 blocker: blocks the human TRPML1 channel; activity change, negative = inhibition, % (no concentration beside the values); TRPML1-inducible cells, Ca2+ dye fluorescence, FDSS; active compounds read low; inhibition of EC80 agonist-evoked calcium signal; hit rate 0.02% among 390,000; Q9GZU1; in the data active means activity change below about -50%; inconclusive means about -30% to -50%; inactive means above about -30%;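 also: stimulus is agonist 54-4 at its EC80 concentration; % is scaled to controls: 0 for no effect and ±100 for the full control effect; compound concentration not given in the record; the text of the record puts the active cut at -80%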
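Calcium fluorescence in TRPML1-DL cells induced overnight with Tet: a 110 s read after compound pin addition, then a 110 s antagonist read after challenge with 54-4 at 4 uM final (EC80).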
gsp antagonist: antagonizes gsp, the McCune-Albright syndrome mutation. gsp-mutant cells, cAMP HTRF, 30 min; control for the full effect not named in the record. Potency, µM (top dose mostly 76.9 µM), for inactives: at the top dose activity change, negative = inhibition, most hits filed as inhibitors. hit rate 0.4% among 340,000. AID 624288; active = falling curve of any shape with a large fitted effect; inconclusive = falling curve, mostly with a smaller effect; inactive = flat or rising curve; cell line not stated here;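 also: intracellular cAMP measured with PDE inhibitor Ro 20-1724 present during compound exposure; potency is read from the fitted curve at half-maximal effect; % is scaled to controls: 0 for no effect and ±100 for the full control effect; nearly all actives have a fitted effect of over 65% in size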
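Cells, 2000/well, grown 16–24 h in DMEM 10% FBS with 0.5 mg/ml G418, then compounds plus […] (300 uM addition stock), 30 min at 37C. cAMP read by HTRF (cAMP-d2 and anti-cAMP antibody-K in lysis buffer) after 30 min RT.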
Sfp inh: Sfp phosphopantetheinyl transferase inhibition | Q9F4F7 | Biochemical Sfp PPTase activity, qHTS | Potency, µM, inactives show max response, negative = inhibition, hits mostly inhibitors | hit rate 3.5% among 310,000 | AID 1490; active = well fitted inhibition curve with a large enough effect; inconclusive = small, poorly fitted or top-dose-only effect, or another doubt; inactive = no such curve, though single readings can be large or run the other way;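 also: the enzyme is Sfp with the accession as filed and its product quenches rhodamine fluorescence; potency is read from the fitted curve at half-maximal effect; 0% = enzyme reaction without inhibitor and -100% = no enzyme wells; top concentration of the series not given in the record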
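Step 1, compound plus 15 nM Sfp-PPTase, 15 min, room temperature. Step 2, add rhodamine-CoA (5 uM) and BHQ-2-YbbR (12.5 uM). Step 3, read 525/598 nm fluorescence at 0 and 30 min.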
Menin-MLL FL inh: displaces fluorescein MLL peptide from human menin; Fluorescence polarization, fluorescein-MLL peptide displacement from menin; AID 1766; FP activity change, % at 61.4 µM; 290,000 tested, under 10 active; inconclusive = falling polarisation curve, or a change in total fluorescence; inactive = total fluorescence flat and polarisation flat or rising; no compound was filed as active; the % refers to the polarisation; negative = inhibition;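 also: % of control where 0% means no effect; inhibitors lower the polarisation; unlabelled MLL peptide was the positive control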
gsp agonist: activates gsp, the McCune-Albright syndrome mutation; hit rate 0.13% among 340,000; Potency, µM (series often up to 76.9 µM), for the others: at the highest dose activation (cAMP increase), actives largely listed as activators; gsp mutant cells, cAMP HTRF, 30 min; control for the full effect not named in the record; active = well fitted activation curve with a large enough effect; inconclusive = small, poorly fitted or top-dose-only effect, or another doubt; inactive = no such curve, though single readings can be large or run the other way; cell line not stated here;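 also: phosphodiesterase inhibitor Ro 20-1724 added with compounds to block cAMP breakdown; potency is read from the fitted curve at half-maximal effect; nearly all actives have a fitted effect of over 60% in size; about a fifth of the inactives were tested at one dose only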
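Cells stably selected in G418 were plated at 2000/well, grown 16-24 hr, then given compounds in DMSO with the PDE inhibitor […] (300 uM solution added) for 30 min at 37C; cAMP was read by HTRF.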
TRPV1 potentiator: enhances activation of the human vanilloid receptor TRPV1. TRPV1-expressing cells, Fluo-8 calcium influx, capsaicin EC20 potentiation; host cell line not named in the record; control for the full effect not named in the record. hit rate 0.02% among 320,000. AID 540277. Q8NER1. potentiation, % at 8.33 µM; active means potentiation above 80%; inconclusive means 30% to 80%; inactive means below 30%; also: 0% is about no effect
Target sequence (Q8NER1 whole entry, looked up): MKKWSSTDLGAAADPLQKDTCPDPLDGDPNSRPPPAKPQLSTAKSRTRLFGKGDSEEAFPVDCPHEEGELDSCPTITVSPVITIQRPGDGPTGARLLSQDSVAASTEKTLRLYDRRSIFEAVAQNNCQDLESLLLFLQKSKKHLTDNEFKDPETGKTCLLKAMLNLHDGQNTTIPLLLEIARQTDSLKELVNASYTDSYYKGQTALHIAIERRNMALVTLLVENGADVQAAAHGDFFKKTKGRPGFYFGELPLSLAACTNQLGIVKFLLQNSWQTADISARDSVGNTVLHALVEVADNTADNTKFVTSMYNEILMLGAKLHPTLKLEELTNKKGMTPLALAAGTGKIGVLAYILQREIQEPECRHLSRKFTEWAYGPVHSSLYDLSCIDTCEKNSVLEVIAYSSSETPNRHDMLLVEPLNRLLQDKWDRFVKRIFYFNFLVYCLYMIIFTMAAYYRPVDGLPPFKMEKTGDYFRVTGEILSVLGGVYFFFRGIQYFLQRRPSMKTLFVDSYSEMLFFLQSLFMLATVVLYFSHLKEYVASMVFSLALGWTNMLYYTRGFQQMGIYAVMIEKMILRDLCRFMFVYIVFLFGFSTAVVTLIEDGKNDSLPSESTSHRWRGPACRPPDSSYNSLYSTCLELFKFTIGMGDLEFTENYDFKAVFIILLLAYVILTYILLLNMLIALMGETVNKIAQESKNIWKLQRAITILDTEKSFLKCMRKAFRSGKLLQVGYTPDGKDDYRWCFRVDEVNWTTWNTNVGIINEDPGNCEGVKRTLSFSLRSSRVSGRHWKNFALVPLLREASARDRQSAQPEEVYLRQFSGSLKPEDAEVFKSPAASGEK
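Cells expressing TRPV1 were dye-loaded with Fluo-8 and read kinetically: 10 s baseline, 3 min after compound (agonist portion), then 2 min after EC20 capsaicin (allosteric enhancer portion). Calcium-bound dye fluorescence at 480/520 nm.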
ClpP mod: qHTS Assay for Activators of ClpP. Potency, µM (top dose mostly 57.5 µM), without a hit: at the top dose activity change, negative = active. hit rate 1.9% among 340,000. ATP-dependent Clp protease proteolytic subunit (Bacillus subtilis (strain 168)), P80244. purified B. subtilis ClpP, FRET peptide cleavage, 20 min; active = well fitted falling curve with a large enough effect; inconclusive = small, poorly fitted or top-dose-only effect; inactive = no such curve, though single readings can be large or run the other way; also: potency is read from the fitted curve at half-maximal effect; the source files actives as falling curves though it sought activators and does not explain the sign; nearly all actives have a fitted effect of over 65% in size; many hits overshoot -100%
Target sequence (P80244 whole entry, looked up): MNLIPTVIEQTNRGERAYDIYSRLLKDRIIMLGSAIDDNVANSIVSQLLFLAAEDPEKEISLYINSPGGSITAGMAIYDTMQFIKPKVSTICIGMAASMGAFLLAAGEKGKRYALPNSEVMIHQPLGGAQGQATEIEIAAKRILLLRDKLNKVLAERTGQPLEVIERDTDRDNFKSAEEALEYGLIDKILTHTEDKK
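FRET quenching reversal measured ClpP activation: 10 microg/mL B. subtilis ClpP at pH 8 with the FRET-FV decapeptide, read at 430 nm after 320 nm excitation. The 20-min minus 0-min signal was scaled between DMSO/no-enzyme wells and ADEP (5.8 microM final).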
Active calls of the source: *; ? = inconclusive; · = no result given; & = joins results of further samples; ! = a repeat was not active; [ ] = dose if it differs, or a comment.

structure	TRPML1 blocker	gsp antagonist	Sfp inh	Menin-MLL FL inh	gsp agonist	TRPV1 potentiator	ClpP mod
COc1c(C)cc(C(=O)C2CCCN(S(=O)(=O)c3c(C)noc3C)C2)cc1C (centres undefined)	11	-3%	-4%	0.1	4%[15.4 µM]	?	-4.9%
CCOc1cc(/C=N/NC(=O)c2ccccc2-n2cccc2)ccc1O	1	8%	·	·	20%	5	0.2%
O=C(Nc1ccc(S(=O)(=O)N2CCCCC2)cc1)C1CC(=O)N(c2ccccc2)C1 (centres undefined)	-7	-41%	-6%	3.4	13%[15.4 µM]	6	·
N#C/C(=C\c1cccs1)C(=O)NCc1ccco1	20	6%	8%	5.2	7%[15.4 µM]	3	-2.9%
Cc1cccc(C)c1N(CC(=O)NCc1ccco1)C(=O)CNS(=O)(=O)c1ccc(F)cc1	-6	-9%	14%	·	-10%[15.4 µM]	4	·
C[C@H]1CN([C@@H](C)CO)C(=O)c2cc(-c3cccc(C#N)c3)cnc2O[C@H]1CN(C)C(=O)c1ccccn1	-8	·	·	·	?	·	-1.7%
COc1ccc(Cc2noc(CN(C)C3CC(C)(C)NC(C)(C)C3)n2)cc1OC	-13	4%	20%	-4.3	-4%	-1	·
CCOc1ccc(-n2c(SCc3ccc(C#N)cc3)nnc2-c2cccnc2)cc1	8	20%	-11%	0.3	-9%	·	0.9%
Cc1nnc(SCC(=O)Nc2ncc(Cl)cc2Cl)n1Cc1ccccc1	28	-5%	-5%	0.3	?	14	-1.3%
CCCCn1cnc2c(cnn2-c2ccc(F)cc2)c1=O	10	-7%	11%	0.4	1%	·	-8.8%
CCOC(=O)C1CCCN(CC(=O)N(C)c2c(N)n(Cc3ccccc3)c(=O)[nH]c2=O)C1 (centres undefined)	32	9%	·	·	?	·	1.5%
CCCCNCC(=O)Nc1ccc(NC(=O)CNCCCC)cc1	-16	12%	6%	1.7	2%	2	0.4%
C=CCC1(CC=C)CCCN1C(=O)Cn1nnnc1CN(C)C(C)C	0	-5%	1%	1.3	0%	-13	-3.5%
COc1ccc(-c2noc(-c3ccccc3C(=O)N3CCOCC3)n2)cc1	21	-2%	25%	-0.1	20%	21	0.8%
O=C(CN1C(=O)NC2(CCCC2)C1=O)Nc1ccccc1-c1ccccc1	-3	-6%	21%	3.6	6%	-5	2.1%
S=C(Nc1ccccc1)N1CCC(C2CCN(C(=S)Nc3ccccc3)CC2)CC1	0	-8%	16%	2.2	19%[15.4 µM]	14	-0.1%
COc1cccc(CN(C)C(=O)C2CCN(S(=O)(=O)c3cccs3)CC2)c1OC	1	0%	·	·	-23%	-8	0.2%
O=C(Nc1nnc(CCc2ccccc2)s1)c1cccc(F)c1	20	-2%	2%	-4.3	?	-2	-5.3%
Cc1ccc(S(=O)(=O)C(CCC(=O)c2ccc(Cl)cc2)C(N)=O)cc1 (centres undefined)	-3	1%	0%	-0.2	-5%	3	-1.6%
CC1CCCC(NC(=O)c2ccc(F)c(S(=O)(=O)N3CCOCC3)c2)C1C (centres undefined)	-4	?	·	·	-4%	-10	-0.5%
O=C(COc1ccccc1Cl)Nc1ccc(N2CCCC2)cc1	9	-6%	3%	·	-7%	6	-3.9%
CCc1n[nH]c2c1/C(=N/O)CCC2	9	9%	8%	2.0	-26%	-6	-0.7%
CCNc1nc(-c2ccc(Cl)cc2)cs1	-2	0%	-3%	3.2	-10%	-18	-6.3%
Cc1cc(NCCCn2ccnc2)n2nc(-c3ccc(F)cc3)cc2n1	6	-4%	-7%	-19	23%	?	-25%
Cc1cc(-c2nc3cccnc3s2)ccc1NS(=O)(=O)c1cccs1	8	?	18%	15	?	3	3.6%
O=C(O)CSc1c2c(nc3cc(C(=O)N4CCCC4)ccc13)CCCC2	-14	1%	2%	-1.9	?	13	·
Cc1ccc(CN2CC[C@H]3C=CCc4cccc(c43)C2)cc1	0	-2%	·	·	·	3	-4.0%
Cc1ccc2c(CC(=O)OCc3csc(C)n3)coc2c1	20	-3%	12%	1.2	-7%	?	-1.7%
CCC1CCCCN1CCCNC(=O)Cn1nc(-c2ccccc2)ccc1=O (centres undefined)	10	4%	10%	-2.2	-12%	7	-12%
CCOC(=O)c1ccc(CSc2nnc(N)s2)cc1	10	-26%	11%	4.4	19%	-10	-3.9%
CCCn1nnc(NC(=O)c2ccc(-c3ccccc3)cc2)n1	-12	-4%	3%	0.0	-36%[inhibitor]	-4	-2.1%
Cc1cc(C)nc(NS(=O)(=O)c2ccc(NC(=O)c3ccccc3[N+](=O)[O-])cc2)n1	·	-7%	-15%	-0.8	-33%[inhibitor]	-23	-1.0%
CC(C)C(=O)NC(c1ccc(N(C)C)cc1)c1c(O)ccc2ccccc12 (centres undefined)	-21	-6%	12%	5.8	?	7	-2.6%
Cc1sc2nc(CN3CCOCC3)nc(Oc3ccc(NC(=O)c4ccco4)cc3)c2c1C	-8	-9%	89µM*!	1.5&0.4	4%	9&-9	1.1%
Cc1cccc(NC(=O)CSc2nnc(CCNC(=O)OC(C)(C)C)o2)c1C	-9	20%	11%	4.8	-11%	6	2.4%
CCN(c1cccc(C)c1)C1C(=O)c2ccccc2N1C(C)=O (centres undefined)	-18	0%	?	2.5	-3%[15.4 µM]	-13	·
COc1ccc(-n2nc([N+](=O)[O-])c(=NCCc3cccc(C)c3)n2O)cc1	23	-13%	-3%	-4.2	5%[15.4 µM]	-6	·
COc1ccc(CN(C)CC(=O)NC(=O)NCc2ccccc2)c(OC)c1	-1	-4%	-5%	1.4	7%	-8	-4.9%
O=C1CC(c2ccco2)Sc2nc3ccccc3n21 (centres undefined)	26	3%	?	5.1	24%	-6	-1.9%
Cc1ccc(OCCOCCNC(C)C)c(Br)c1	-12	8%	-22%	-2.6	-10%	?	-0.5%
CCOc1ccc(C(=O)COC(=O)c2nn(CC)c(=O)c3ccccc23)cc1	31	4%	·	·	-12%	10	-5.4%
O=C(O)c1ccc(CSCc2ccccc2)o1	3	·	·	·	?	·	0.7%
CCOc1ccc(CN(C)c2nc(-c3cccnc3)nc3ccccc23)cc1OC	-7	-13%	-24%	1.7	-14%[15.4 µM]	-7	·
CSCCC(NS(=O)(=O)c1ccccc1)C(=O)OCc1nc2ccsc2c(=O)[nH]1 (centres undefined)	-19	0%	·	·	5%	21	-1.8%
COc1ccc(CC(=O)N[C@@H](C)C(=O)N2CCC3(CC2)NCCc2[nH]cnc23)cc1	26	3%	11%	·	-37%[inhibitor]	2	·
CC(C)CC1c2[nH]c3ccccc3c2CCN1C(=O)c1cnccn1 (centres undefined)	26	-12%	9%	-0.1	4%	3	·
O=C(CSc1nnc(COc2ccc(Cl)cc2)o1)OC1CCCCC1	5	-17%	13%	-0.5	-10%	-18	0.8%
COC(=O)c1cn(-c2ccccc2)nc1-c1ccncc1	3	4%	17%	5.9	-55%[inhibitor]	-6	-4.3%
S=c1nn[nH]c2ccccc12	9	6%	·	·	12%	·	·
COc1ccc2c(c1)C(=O)CC(c1ccccc1F)O2 (centres undefined)	-3	-7%	-24%	3.9	-1%	11	?
C/C(=N\NC(=O)COc1cccc(Br)c1)c1ccc2c(c1)OCCO2	6	-19%	·	·	-16%	-11	-1.8%
Cc1ccc2[nH]c3c(c2c1)CCc1cn[nH]c1-3	15	-13%	10%	1.9	-28%	-10	2.8µM*
Cc1ccc(CCNC(=O)Cn2ccc3cc(S(=O)(=O)N4CCCC4)ccc32)cc1	4	-17%	19%	5.2	-4%	-12	·
O=C(CN1CCN(c2ccc(F)cc2)CC1)Nc1ccc(S(=O)(=O)N2CCOCC2)cc1	-17	1%	24%	-0.9	-39%[inhibitor]	-19	0.4%
CCOC(=O)CC1COCCN1C(=O)c1cc(COc2ccccc2SC)on1 (centres undefined)	-8	·	·	·	2%	·	3.0%
CC(=O)OCc1cc(=O)n(C)c(=O)n1C	-22	12%	-1%	1.1	-38%	-9	-1.4%

The listing continues:
structure	TRPML1 blocker	gsp antagonist	Sfp inh	Menin-MLL FL inh	gsp agonist	TRPV1 potentiator	ClpP mod
O=C(CN1CCCCCC1)NCCN1C(=O)S/C(=C\c2ccccc2Cl)C1=O	6	·	5%	-1.5	-8%[15.4 µM]	3	·
COc1cc2c(cc1OC)CN(C(=O)CNS(=O)(=O)c1ccc(C)c(C)c1)CC2	-5	1%	7%	0.0	11%	-9	·
Cc1cc(C)n2nc(SCC(=O)Nc3ccc(F)cc3[N+](=O)[O-])nc2n1	-14	8%	·	·	27%	·	-8.8%
CC(C)C(OC(=O)CN1C(=O)c2ccccc2C1=O)C(=O)NC1CCCCC1 (centres undefined)	10	-9%	-1%	-1.7	-6%[15.4 µM]	-17	-10%
Cc1cc(C)cc(NC(=O)Nc2c(Br)cnn2C)c1	-4	6%	12%	3.4	4%	-11	0.7%
O=C1c2ccccc2-c2onc3c(N4CCN(CCO)CC4)cc(N4CCN(C(=O)c5ccco5)CC4)c1c23	-13	18µM*	5µM*	?	-13%[15.4 µM]	-2	·
COc1ccc(-c2noc(C)c2-c2ccc3ccccc3n2)c(O)c1	16	?	6%	-1.8	-37%[inhibitor]	-9	1.6%
CCN(CC)S(=O)(=O)c1ccc(NC(=O)c2ccc(N3CCCC3=O)cc2)cc1	2	-7%	·	·	12%[15.4 µM]	·	-0.8%
CCN1CCSc2ccc(C(=O)NCc3ccccc3Br)cc21	12&42	-10%	13%	-1.7	19%	-7	4.4%&4.0%
Cc1cc2oc(=O)ccc2cc1[N+](=O)[O-]	0	5%	22%	3.8	3%	1	-0.1%
Cc1cc(=O)n2c(C(=O)Nc3ccc(C)c(C)c3)c(C(=O)Nc3ccccc3)sc2n1	-5&7	6%	-7%	5.4	?	9	0.4%&-0.2%
CC1CCN(C(=O)CSc2nc(N)cc(N)n2)CC1	5	0%	6%	5.2	3%	1	2.5%
